HCMV NEC inh: disrupts HCMV UL50-UL53 complex binding. inhibition, % (test concentration not listed). hit rate 0.15% among 190,000. HTRF UL50-UL53 interaction, normalized percent inhibition. AID 1918969;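 active = both replicates at 50% or more, plus weaker picks with an unusually low signal ratio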;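 also: stock transfer was 100 nL into about 20 µL; 0% = negative control wells and 100% = wells with untagged competitor protein; inactives centre near -12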
GIV Gai3 FP: inhibitors of GIV GBA-motif binding to rat Galpha-i3. P08753. Galpha-i3/FITC-GIV peptide fluorescence polarization, 90 min; stronger effect = lower value; scaled: aluminum fluoride 0%, vehicle 100%. percent of control (FP), % (concentration not given with the values). hit rate 0.42% among 210,000;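 active = replicate mean at 85% of control or lower, very high polarization wells dropped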;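 also: wells of about 15 µL received 100 nL stock; the first replicate is given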
Target sequence (P08753 whole entry, looked up): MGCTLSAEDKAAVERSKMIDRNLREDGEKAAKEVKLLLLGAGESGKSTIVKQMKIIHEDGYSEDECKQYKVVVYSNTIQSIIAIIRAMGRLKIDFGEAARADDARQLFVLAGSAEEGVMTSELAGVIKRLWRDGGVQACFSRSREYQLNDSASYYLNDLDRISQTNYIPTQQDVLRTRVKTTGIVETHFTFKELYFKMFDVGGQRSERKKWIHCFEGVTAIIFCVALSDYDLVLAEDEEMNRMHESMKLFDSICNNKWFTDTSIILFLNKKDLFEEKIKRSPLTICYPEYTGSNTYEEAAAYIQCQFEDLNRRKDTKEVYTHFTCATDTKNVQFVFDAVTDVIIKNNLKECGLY
Sa growth 42C: S. aureus growth inhibition | relative growth, % (concentration not given with the values) | S. aureus RN4220 growth, OD600, 20 h, 42 °C; stronger effect = lower value | hit rate 0.53% among 170,000;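 active = growth at 42 °C up to 50% and 20 or more points under that at 30 °C, or under 10% at both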;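 also: 300 nL library stock went into each well; scaled to the means of positive and negative controls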
Sa growth 42C second temp: also measured in Sa growth 42C; calls as there; relative growth, %; measured here: growth at 30 °C;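 optical density after 20 h as mean of two plates; 100% = untreated growth and lower means inhibition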
Numbers without * were called inactive; x = no result given. Compounds were not picked by outcome; overall some 0.83% were active at least once.

[1] O=C(O)Cc1ccc(S(=O)(=O)N2CCOCC2)s1
[2] O=C(COc1ccc2ccccc2c1)Oc1ccc(C(=O)c2ccccc2)cc1
[3] C[C@@H]1CC2C3C[C@H](F)C4=CC(=O)C=C[C@]4(C)[C@@]3(F)[C@@H](O)C[C@]2(C)[C@@]1(O)C(=O)CO (stereo partly specified)
[4] Cn1c(=O)n(CCN2CCCCC2)c(=O)c2c1nc1n2CCCN1c1ccc(Br)cc1
[5] COc1ccccc1-c1cc(-c2ccc(O)cc2)nc(N)c1C#N
[6] O=C(N1CCCCC1)N1c2ccccc2Sc2ccccc21
Compound,1,2,3,4,5,6
HCMV NEC inh,-7,x,-69,-32,-8,x
GIV Gai3 FP,x,97,x,100,104,112
Sa growth 42C,93,87,93,x,96,94
Sa growth 42C second temp,84,98,91,x,55,96

[7] O=C(CC(CC(=O)c1ccc(Br)cc1)c1cccnc1)c1ccc(Br)cc1
[8] CCC/C(=N\O)c1ccccn1
[9] CCC1CCCCN1CC(=O)c1ccco1 (stereo unspecified)
[10] CCCc1nnc(N(Cc2ccc(Cl)cc2)C(=O)c2ccc(C)cc2)s1
[11] O=c1[nH]nc(-c2ccccc2)c2ccccc12
[12] Nc1nc(SCC(=O)N2CCCc3ccccc32)n(-c2ccccc2)n1
Compound,7,8,9,10,11,12
HCMV NEC inh,-19,6,-50,-10,-9,-7
GIV Gai3 FP,107,103,x,x,x,103
Sa growth 42C,94,137,76,98,107,100
Sa growth 42C second temp,88,74,69,91,87,82

By substructure, the entries above containing bromine (two)
[4] Cn1c(=O)n(CCN2CCCCC2)c(=O)c2c1nc1n2CCCN1c1ccc(Br)cc1
[7] O=C(CC(CC(=O)c1ccc(Br)cc1)c1cccnc1)c1ccc(Br)cc1
Compound,4,7
HCMV NEC inh,-32,-19
GIV Gai3 FP,100,107
Sa growth 42C,x,94
Sa growth 42C second temp,x,88

(more compounds)
[13] O=C(NC1CCCCC1)NC1CCN(Cc2nnnn2Cc2ccc3c(c2)OCO3)CC1
[14] CC(C)CSc1ncnc2scc(-c3ccccc3)c12
[15] CC(C)Cc1ccc(S(=O)(=O)c2c(C(=O)N3CCCCC3)cnc3ccccc23)cc1
[16] CCOC(=O)c1c(NC(C)=O)c2c3c(sc2n1Cc1nc(-c2ccccc2Cl)oc1C)CCCC3
[17] Cc1cc(NC(=O)c2cnn(-c3ccccc3)c2-n2cccc2)ccc1Br
[18] Cc1c2cnn(CC(=O)N3CCCCC3)c(=O)c2c(C)n1Cc1ccc(F)cc1
Compound,13,14,15,16,17,18
HCMV NEC inh,-10,-17,2,4,1,-10
GIV Gai3 FP,97,x,106,107,100,99
Sa growth 42C,119,108,x,85,104,112
Sa growth 42C second temp,88,81,x,91,108,91

[19] Cc1cc(C(=O)COc2ccc3ccc(=O)oc3c2)c(C)n1C
[20] CCCn1c(=O)oc2cc(NC(=O)Nc3ccc(C)c(Cl)c3)ccc21
[21] Nc1ccc(Cl)cc1C(=O)NCCc1ccc(Cl)cc1
[22] Cc1nc2ccc(S(=O)(=O)NCC(=O)NCc3ccc(Cl)cc3)cc2s1
[23] CCOC(=O)C1CCCN(C(=O)c2ccc(OC)c(OC)c2)C1 (stereo unspecified)
[24] CC(Cc1cccs1)NC(=O)NC1CCCCC1 (stereo unspecified)
Compound,19,20,21,22,23,24
HCMV NEC inh,-8,-17,x,-8,-4,18
GIV Gai3 FP,x,92,97,97,105,x
Sa growth 42C,91,x,108,102,103,104
Sa growth 42C second temp,95,x,82,85,92,96

[25] CC(C)(Cc1nc2ccccc2[nH]1)C(=O)O
[26] CCOc1ccc(N(C(C)C(=O)Nc2cc(Cl)ccc2OC)S(C)(=O)=O)cc1 (stereo unspecified)
[27] Cc1cc(-c2ccc(C)c(S(=O)(=O)N3CCOc4ccc(Cl)cc43)c2)on1
[28] CCOC(=O)c1cnn(-c2nc3ccccc3s2)c1/N=C/N(C)C
[29] CN(Cc1ccccc1)C(=O)Nc1ccc2c(c1)N(C)C(=O)c1ccccc1S2
[30] CCOC(=O)c1[nH]c2c(c1Cc1ccccc1OC)C(=O)CC(c1ccc(OC)cc1)C2 (stereo unspecified)
Compound,25,26,27,28,29,30
HCMV NEC inh,-14,-4,x,-14,6,-9
GIV Gai3 FP,97,102,104,x,99,107
Sa growth 42C,99,100,115,101,128,98
Sa growth 42C second temp,89,89,103,96,91,86

[31] Cc1noc2c1C(c1cccc(Cl)c1)C1=C(CC(c3ccccc3)CC1=O)N2 (stereo unspecified)
[32] Cc1cccc(Nc2nc(C)c3nc(C)n(-c4cccc(C)c4)c3n2)c1
[33] CCN(Cc1cc(=O)n2ccsc2n1)c1cccc(C)c1
[34] N#CC1=C(N)Oc2c(oc(CO)cc2=O)C12C(=O)NC1C=CC=CC12 (stereo unspecified)
[35] Cc1nnc(N2CCN(C(=O)Nc3cc(F)ccc3F)CC2)c2nn(-c3ccc(Cl)cc3)c(C)c12
[36] Cc1nn(C(C)(C)C)c(OC(=O)c2ccccc2)c1Sc1ccccc1
Compound,31,32,33,34,35,36
HCMV NEC inh,0,19,-21,-9,x,x
GIV Gai3 FP,108,109,104,103,105,100
Sa growth 42C,x,x,x,110,110,91
Sa growth 42C second temp,x,x,x,99,84,98

Part of the list above, with values under each structure.
Second line of a record – HCMV NEC inh	GIV Gai3 FP	Sa growth 42C	Sa growth 42C second temp
31	Cc1noc2c1C(c1cccc(Cl)c1)C1=C(CC(c3ccccc3)CC1=O)N2 (stereo unspecified)
    0	108	x	x
32	Cc1cccc(Nc2nc(C)c3nc(C)n(-c4cccc(C)c4)c3n2)c1
    19	109	x	x

One compound at a time, as listed above:
Cc1cccc(Nc2nc(C)c3nc(C)n(-c4cccc(C)c4)c3n2)c1 reads HCMV NEC inh: 19; GIV Gai3 FP: 109; Sa growth 42C: x; Sa growth 42C second temp: x
Cc1noc2c1C(c1cccc(Cl)c1)C1=C(CC(c3ccccc3)CC1=O)N2 (stereo unspecified) reads HCMV NEC inh: 0; GIV Gai3 FP: 108; Sa growth 42C: x; Sa growth 42C second temp: x
Cc1nnc(N2CCN(C(=O)Nc3cc(F)ccc3F)CC2)c2nn(-c3ccc(Cl)cc3)c(C)c12 reads HCMV NEC inh: x; GIV Gai3 FP: 105; Sa growth 42C: 110; Sa growth 42C second temp: 84

Further structures follow.
[37] OC(CC#CCN1CCCC1)(c1ccccc1)C1CCCC1 (stereo unspecified)
[38] N#Cc1c(Sc2nnnn2-c2ccccc2)nc(CCc2ccccc2)c2c1CCCC2
[39] COc1ccc(OC)c(/C=c2\sc3nc4ccccc4n3c2=O)c1
[40] CC(CC(=O)C1C(C)C=CCC1(C)C)Nc1ccccc1 (stereo unspecified)
[41] COc1ccc(NC(=O)c2nnn(-c3ccc(C(C)C)cc3)c2C)c(OC)c1
[42] O=S(=O)(/C=C/c1ccccc1)N1CCN(Cc2cc3c(cc2O)CCC3)CC1
Compound,37,38,39,40,41,42
HCMV NEC inh,-10,-1,-7,-1,-16,-15
GIV Gai3 FP,x,x,89,x,99,x
Sa growth 42C,109,107,96,76,99,128
Sa growth 42C second temp,80,98,90,82,91,99

[43] COc1ccc(S(=O)(=O)Nc2cc3c(cc2Oc2ccccc2)n(C)c(=O)c(=O)n3C)cc1OC
[44] CCOC(=O)c1c(C)oc2c1c1c(c3ccccc32)OCN(C2CC(C)(C)NC(C)(C)C2)C1
[45] COc1cc(NC(=O)Cn2c(=O)ccc3cc(S(=O)(=O)N4CCCC4)ccc32)cc(OC)c1
[46] Cc1ccc(C)c(NC(=O)Cn2cc(C(=O)c3ccc(Cl)cc3)c(=O)c3ccc(C)nc32)c1
[47] COc1cccc(CNc2ccc3c(c2)ncn3C)c1OC
[48] O=C(C1CCCC1)N1CCC(c2nc(-c3ccc(Cl)cc3)no2)CC1
Compound,43,44,45,46,47,48
HCMV NEC inh,-27,-12,x,x,4,6
GIV Gai3 FP,97,104,95,106,110,96
Sa growth 42C,x,91,96,85,107,x
Sa growth 42C second temp,x,81,83,96,98,x

[49] Cc1cc(C)cc(C(=O)Nc2ccc(-c3nc4ncccc4o3)cc2)c1
[50] O=C(Nc1c(C(=O)Nc2ccc(F)cc2)oc2ccccc12)c1ccccc1
[51] CCN1C(=O)/C(=C\C=C\c2ccccc2Cl)SC1=S
[52] CCc1cccc(-n2c(=O)c3cccnc3n2CC(=O)NCc2ccccc2)c1
[53] COc1ccc2cccc(O)c2n1
[54] CC(C)CCn1c(O)c(N=O)c2ccccc21
Compound,49,50,51,52,53,54
HCMV NEC inh,-39,x,x,x,0,-87
GIV Gai3 FP,82*,100,105,104,99,x
Sa growth 42C,98,81,93,85,106,94
Sa growth 42C second temp,92,70,84,86,90,58

GIV Gai3 FP: hit marks shown above
entry	canonical_smiles	GIV Gai3 FP	Sa growth 42C second temp
49	Cc1cc(C)cc(C(=O)Nc2ccc(-c3nc4ncccc4o3)cc2)c1	82*	92

Next compounds follow.
[55] O=C1OC(c2ccc(F)cc2)=C/C1=C/c1ccc(O)cc1
[56] COCCCNC(=O)C1CCCN(C(=O)c2cnn(-c3ccc(F)cc3)c2-n2cccc2)C1 (stereo unspecified)
[57] CCC(C)NC(=O)c1ccc(CN2CCCn3nc(C)cc32)cc1 (stereo unspecified)
[58] O=C(NCc1ccccc1Cl)C1CCN(c2ncnc3c2nc2n3CCCCC2)CC1
[59] Cc1nc2nc(SCC(=O)O)nn2c(C)c1Cc1ccccc1Cl
[60] Cc1c(NC(=O)Cn2c(-c3cscn3)nc3ccccc32)c(=O)n(-c2ccccc2)n1C
Compound,55,56,57,58,59,60
HCMV NEC inh,-30,x,-14,x,-27,-25
GIV Gai3 FP,105,107,98,102,110,x
Sa growth 42C,82,112,x,99,110,102
Sa growth 42C second temp,80,98,x,90,89,79

[61] Cc1ccc(C(=O)NC(C(=O)O)c2ccccc2)cc1 (stereo unspecified)
[62] C=CCc1c(CCC)nc(-c2ccccn2)[nH]c1=O
[63] CCCN(CCC)C(=O)C(Cc1ccccc1)NS(=O)(=O)c1ccc2c(c1)c(=O)n(C)c(=O)n2C (stereo unspecified)
[64] Cc1noc(-c2cccnc2NCc2ccccc2)n1
[65] CCOC(=O)CN1C(=O)S/C(=C/c2ccc(OCC(N)=O)c(OCC)c2)C1=O
[66] CC1=NN(c2nc3ccccc3nc2Cl)C(=O)C1
Compound,61,62,63,64,65,66
HCMV NEC inh,-16,-1,-21,-13,-19,x
GIV Gai3 FP,110,101,102,97,95,99
Sa growth 42C,106,-0.3*,110,x,85,91
Sa growth 42C second temp,94,0.1*,89,x,90,81

[67] O=C(NCCC1=CCCCC1)c1cc2n(n1)CCCN(Cc1cccc(F)c1)C2=O
[68] CCOc1ccc(CCNC(=O)CCCc2nnc3n(CC)c(=O)c4sccc4n23)cc1OCC
[69] COc1cc(NC(=O)CNc2cccc(C#N)c2)cc(OC)c1
[70] COC(=O)c1cc(-c2ccc(F)cc2)nc2onc(C)c12
[71] CN(C)S(=O)(=O)c1ccc2c(c1)N(CC(=O)N1CCCCC1)CCS2
[72] COc1ccc(C=C2C(=O)OC3(CCCCC3)OC2=O)cc1OC
Compound,67,68,69,70,71,72
HCMV NEC inh,10,12,-3,-15,x,x
GIV Gai3 FP,101,101,x,x,103,105
Sa growth 42C,x,96,92,102,100,105
Sa growth 42C second temp,x,95,95,90,95,88

[73] COc1ccccc1-c1nn(CCC(=O)NCCCN2CCCC2=O)c2nc(C)cc(C)c12
[74] O=C(COc1ccccc1F)NCc1nc2ccccc2[nH]1
[75] Cc1cc(Cl)ccc1OCc1nc(=S)[nH][nH]1
[76] CC(C)Cn1c(=O)c2sccc2n2c(CCC(=O)NC3CCCCC3)nnc12
Compound,73,74,75,76
HCMV NEC inh,-1,-33,-29,5
GIV Gai3 FP,106,x,x,97
Sa growth 42C,105,113,82,x
Sa growth 42C second temp,87,83,95,x
